CtBP-E1A inh: blocks the CtBP interaction with E1A; AlphaScreen GST-E1A/His-CtBP binding, 1536-well; stronger effect = lower value; control for the full effect not named in the record; activity change, % (concentration not given with the values); 0.49% of 340,000 active; in the data active means activity change below about -65%; inconclusive means about -30% to -65%; inactive means above about -30%; also: % is scaled to controls: 0 for no effect and ±100 for the full control effect
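Homogeneous bead-based format: GST-tagged E1A captured on glutathione donor beads, His-tagged CtBP on nickel acceptor beads; compounds precede bead addition by 2 h at 37 °C.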
Menin-MLL FL inh: menin-MLL binding inhibition, fluorescein peptide. Fluorescence polarization, fluorescein-MLL peptide displacement from menin. FP activity change, % at 61.4 µM. 290,000 tested, under 10 active; inconclusive = falling polarisation curve, or a change in total fluorescence; inactive = total fluorescence flat and polarisation flat or rising; no compound was filed as active; the % refers to the polarisation; negative = inhibition;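 also: % of control where 0% means no effect; inhibitors lower the polarisation; unlabelled MLL peptide was the positive control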
gsp ag: agonists of gsp mutant (McCune-Albright syndrome); gsp mutant cells, cAMP HTRF, 30 min; control for the full effect not named in the record; Potency, µM (doses to about 76.9 µM), without a hit: top-dose activation (cAMP increase), usual class: activators; 0.13% of 340,000 active; AID 624287; active = well fitted activation curve with a large enough effect; inconclusive = small, poorly fitted or top-dose-only effect, or another doubt; inactive = no such curve, though single readings can be large or run the other way; cell line not stated here;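 also: phosphodiesterase inhibitor Ro 20-1724 added with compounds to block cAMP breakdown; potency is read from the fitted curve at half-maximal effect; nearly all actives have a fitted effect of over 60% in size; about a fifth of the inactives were tested at one dose only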
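Cells stably selected in G418 were plated at 2000/well, grown 16-24 hr, then given compounds in DMSO with the PDE inhibitor […] (300 uM solution added) for 30 min at 37C; cAMP was read by HTRF.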
Sfp inh: blocks B. subtilis Sfp PPTase activity; Biochemical Sfp PPTase activity, qHTS; 3.5% of 310,000 active; Potency, µM, inactives show max response, negative = inhibition, most hits filed as inhibitors; Q9F4F7; AID 1490; active = well fitted inhibition curve with a large enough effect; inconclusive = small, poorly fitted or top-dose-only effect, or another doubt; inactive = no such curve, though single readings can be large or run the other way;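 also: the enzyme is Sfp with the accession as filed and its product quenches rhodamine fluorescence; potency is read from the fitted curve at half-maximal effect; 0% = enzyme reaction without inhibitor and -100% = no enzyme wells; top concentration of the series not given in the record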
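Fluorescence-quenching assay with 15 nM Sfp, 5 uM rhodamine-CoA and 12.5 uM BHQ-2-labelled ybbR peptide in pH 7.6 Hepes/MgCl2 buffer. Enzyme was pre-incubated with compound for 15 min at room temperature. Rate was taken from the 30-min fluorescence change (525/598 nm).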
TRPV1 PAM: enhances activation of the human vanilloid receptor TRPV1. Q8NER1. TRPV1-expressing cells, Fluo-8 calcium influx, capsaicin EC20 potentiation; host cell line not named in the record; control for the full effect not named in the record. potentiation, % at 8.33 µM. 0.02% of 320,000 active. AID 540277; active means potentiation above 80%; inconclusive means 30% to 80%; inactive means below 30%; also: 0% is about no effect
Target sequence (Q8NER1 whole entry, looked up): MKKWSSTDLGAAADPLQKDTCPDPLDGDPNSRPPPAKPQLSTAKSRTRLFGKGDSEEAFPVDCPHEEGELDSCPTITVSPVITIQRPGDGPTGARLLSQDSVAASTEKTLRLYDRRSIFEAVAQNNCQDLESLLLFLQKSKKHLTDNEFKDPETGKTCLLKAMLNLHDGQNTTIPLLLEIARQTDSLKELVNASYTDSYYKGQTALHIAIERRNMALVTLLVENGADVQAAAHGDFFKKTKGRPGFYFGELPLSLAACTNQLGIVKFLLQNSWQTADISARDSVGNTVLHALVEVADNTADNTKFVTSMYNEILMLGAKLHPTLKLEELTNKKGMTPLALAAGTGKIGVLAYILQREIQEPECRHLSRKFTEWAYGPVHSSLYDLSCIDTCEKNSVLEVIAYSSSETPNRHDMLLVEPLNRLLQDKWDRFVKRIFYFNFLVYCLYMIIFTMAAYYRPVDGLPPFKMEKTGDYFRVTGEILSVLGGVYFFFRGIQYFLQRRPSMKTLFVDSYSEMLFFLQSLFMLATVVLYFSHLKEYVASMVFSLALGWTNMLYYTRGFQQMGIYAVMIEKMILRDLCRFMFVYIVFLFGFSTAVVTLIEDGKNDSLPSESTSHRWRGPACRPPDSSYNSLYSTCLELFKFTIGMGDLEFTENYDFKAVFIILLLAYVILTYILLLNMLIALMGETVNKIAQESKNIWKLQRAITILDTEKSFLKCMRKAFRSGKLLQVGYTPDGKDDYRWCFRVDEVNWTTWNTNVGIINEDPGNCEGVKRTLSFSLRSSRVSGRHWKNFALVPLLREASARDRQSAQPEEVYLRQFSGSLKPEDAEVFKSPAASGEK
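TRPV1-expressing cells were cultured overnight at 35.5C and loaded with Fluo-8 calcium dye for 40 to 90 min at room temperature. After a 10 s baseline, compound was added and calcium influx was read kinetically for 3 min (ex 480/em 520 nm).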
ClpP mod: qHTS Assay for Activators of ClpP | ATP-dependent Clp protease proteolytic subunit (Bacillus subtilis (strain 168)), P80244 | purified B. subtilis ClpP, FRET peptide cleavage, 20 min | Potency, µM (top dose mostly 57.5 µM), without a hit: top-dose activity change, negative = active | 1.9% of 340,000 active | AID 651965, 2013; active = well fitted falling curve with a large enough effect; inconclusive = small, poorly fitted or top-dose-only effect; inactive = no such curve, though single readings can be large or run the other way; also: potency is read from the fitted curve at half-maximal effect; the source files actives as falling curves though it sought activators and does not explain the sign; nearly all actives have a fitted effect of over 65% in size; many hits overshoot -100%
Target sequence (P80244 whole entry, looked up): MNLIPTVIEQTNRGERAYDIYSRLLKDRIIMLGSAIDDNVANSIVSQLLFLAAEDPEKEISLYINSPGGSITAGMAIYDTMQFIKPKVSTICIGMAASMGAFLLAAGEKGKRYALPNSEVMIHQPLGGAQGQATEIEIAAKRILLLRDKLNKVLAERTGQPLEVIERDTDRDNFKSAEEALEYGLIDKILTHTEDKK
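ClpP 10 microg/mL final, pH 8 Tris/KCl buffer with BSA, glycerol, Tween-20; compound pinned in; FRET-FV substrate; RT 20 min; Ex320/Em430; ΔFRET vs ADEP 5.8 microM, DMSO, no enzyme.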
gsp antagonist: antagonists of gsp mutant (McCune-Albright syndrome) | gsp-mutant cells, cAMP HTRF, 30 min; control for the full effect not named in the record | Potency, µM (highest dose often 76.9 µM), inactives show at the top dose activity change, negative = inhibition, hits mostly inhibitors | 0.4% of 340,000 active | AID 624288; active = falling curve of any shape with a large fitted effect; inconclusive = falling curve, mostly with a smaller effect; inactive = flat or rising curve; cell line not stated here;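 also: intracellular cAMP measured with PDE inhibitor Ro 20-1724 present during compound exposure; potency is read from the fitted curve at half-maximal effect; % is scaled to controls: 0 for no effect and ±100 for the full control effect; nearly all actives have a fitted effect of over 65% in size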
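Cells, 2000/well, grown 16–24 h in DMEM 10% FBS with 0.5 mg/ml G418, then compounds plus […] (300 uM addition stock), 30 min at 37C. cAMP read by HTRF (cAMP-d2 and anti-cAMP antibody-K in lysis buffer) after 30 min RT.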
Starred values were filed as active, the others as inactive; ? = inconclusive; / = no result given; [ ] = another dose, or the depositor's remark.

SMILES	CtBP-E1A inh	Menin-MLL FL inh	gsp ag	Sfp inh	TRPV1 PAM	ClpP mod	gsp antagonist
COc1ccc(N2CCN(C(=O)CCc3nnc4ccc(N5CCC(C)CC5)nn34)CC2)cc1	/	/	-1%	-6%	1	-0.4%	5%
CCOn1c(=O)c(-c2ccc(F)cc2)[n+]([O-])c2ccccc21	1	-3.4	21%	5%	9	-10%	16%
O=C(O)c1cccc(-c2ccc(/C=N/Nc3nn[nH]n3)o2)c1	19	-0.3	-2%[15.4 µM]	45µM*	-2	/	/
O=C(N=C1SC2CS(=O)(=O)CC2N1c1ccccc1)c1ccccc1 (centres undefined)	4	/	-7%	/	/	/	-6%
COc1cc(C(=O)NCCNC(=O)C2CCCNC2=O)cc(OC)c1OC (centres undefined)	-2	7.8	-12%[15.4 µM]	15%	9	/	-1%
CC1CC(C)CN(S(=O)(=O)CC23CCC(CC2=O)C3(C)C)C1 (centres undefined)	1	1.0	26%	6%	30	/	5%
Cc1cc(C(=O)NNC(=O)c2ccccc2O)c(C)o1	/	/	?	/	-4	-12%	-2%
Cn1c(CCN2CCCCC2)nc2cc(NC(=O)Nc3ccccc3)ccc21	7	-0.5	-13%[15.4 µM]	1%	-11	1.8%	2%
Cn1cnnc1SCC(=O)Nc1ncc([N+](=O)[O-])s1	-1	/	8%[15.4 µM]	/	/	-2.1%	5%
O=C(CSc1nc2ccccc2[nH]1)N/N=C/c1ccncc1	-2	-0.5	-39%[inhibitor]	11%	1	/	-4%
CCN(C(=O)c1c(C)noc1C)c1c(N)n(Cc2ccccc2)c(=O)[nH]c1=O	5	/	-22%	/	0	0.6%	8%
COc1c(Cl)ccc(Cl)c1C(=O)NC(=O)Nc1nc(C)cc(C)n1	-3	/	-7%[15.4 µM]	22%	-11	1.4%	-7%
O=C(NNC(=O)C1CCCC1)c1cc([N+](=O)[O-])cc([N+](=O)[O-])c1	21	/	-67%[inhibitor]	/	-3	-24%	15%
O=C(NCc1cccnc1)C(=O)NCC(c1ccco1)N1CCN(c2ccccc2)CC1 (centres undefined)	1	-1.9	?	25%	10	-2.9%	-6%
Nc1nc(-c2ccc(F)cc2)cs1	-1	-1.9	-7%[15.4 µM]	9%	-7	/	6%
O=C(COC(=O)CCC(=O)c1ccc(F)cc1)NCc1ccccc1Cl	6	/	2%	/	/	/	5%
O=C(CN1C(=O)S/C(=C\c2ccc(F)cc2)C1=O)NCCCn1ccnc1	-15	/	-29%	3%	-31	0.6%	-11%
O=C(CSc1nnc(-c2ccccc2F)o1)N1CCCC1	7	-1.2	-5%[15.4 µM]	13%	14	/	12%
Nn1c(SCc2cccc3ccccc23)nnc1-c1ccco1	4	3.6	-2%	-2%	20	2.0%	5%
N#CCCN(Cc1cccs1)C(=O)c1ccc(Cl)cc1	/	-1.8	29%	20%	/	-3.8%	9%
Cc1[nH]c2ccccc2c1C(=O)C(=O)NCCOc1ccccc1	-1	-1.1	28%[15.4 µM]	9%	17	/	4%
COc1cc(Cl)ccc1S(=O)(=O)n1nc(C)cc1C	0	2.0	-57%[inhibitor]	-8%	-2	1.1%	1%
CCSc1nnc(-c2cccnc2)n1Cc1ccco1	1	-0.6	12%	40µM*	-19	-0.3%	8%
Cc1cc(/C=C2\SC(=S)N(Cc3ccco3)C2=O)c(C)n1-c1ccccc1	-19	/	19%	-13%	1	-0.2%	10%
O=C(COC(=O)c1ccccn1)NCCc1ccc(Cl)cc1	1	/	3%	/	/	/	5%

By substructure: the entries above with a nitro group on carbon
SMILES	CtBP-E1A inh	Menin-MLL FL inh	gsp ag	Sfp inh	TRPV1 PAM	ClpP mod	gsp antagonist
Cn1cnnc1SCC(=O)Nc1ncc([N+](=O)[O-])s1	-1	/	8%[15.4 µM]	/	/	-2.1%	5%
O=C(NNC(=O)C1CCCC1)c1cc([N+](=O)[O-])cc([N+](=O)[O-])c1	21	/	-67%[inhibitor]	/	-3	-24%	15%

The listing continues.
SMILES	CtBP-E1A inh	Menin-MLL FL inh	gsp ag	Sfp inh	TRPV1 PAM	ClpP mod	gsp antagonist
O=C(C1CCCN(Cc2ccccc2F)C1)N1CCCCC1 (centres undefined)	-1	-4.0	6%[15.4 µM]	-4%	11	-11%	4%
CSc1ncccc1C(=O)NNc1cc(Cl)ccc1Cl	6	1.7	2%	-2%	-2	-0.2%	-6%
N#Cc1ccc(Oc2ccc(NC(=O)C3CC=CCC3C(=O)O)cc2)cc1 (centres undefined)	/	-1.6	-1%	7%	6	0.5%	-8%
Cc1ccc(O)c(NC(=O)/C=C/C(=O)O)c1	/	1.0	?	?	5	-1.0%	-2%
Cc1ccc(S(=O)(=O)N(CC(=O)NC2CC2)c2ccc(C)c(Cl)c2)cc1	-1	/	-26%	17%	-5	16µM*	-12%
O=C(CC(=O)N/N=C\c1ccccc1)NCCc1ccccc1	-4	-0.4	-10%[15.4 µM]	17%	-3	-0.2%	-7%
Cc1cccc(-c2nnc3n2N=C(c2ccc(Br)cc2)CS3)c1	5	-2.0	-6%	7%	1	0.1%	-1%
CCOC(=O)/C(=N/Nc1ccc(Cl)cc1)S(=O)(=O)c1ccc(Cl)cc1	-1	2.7	0%	2%	3	1.6%	3%
O=C1C=CC(=Nc2ccc3c(c2)Cc2ccccc2-3)O1	-9	/	4%	/	/	/	-2%
CCOc1nc(C)ccc1-c1noc(-c2ccccc2OC)n1	8	4.2	-42%[inhibitor]	-13%	6	?	?
CN(C(=O)Nc1cccc(C(F)(F)F)c1)C1CCCCC1	4	0.3	-4%[15.4 µM]	4%	-6	/	1%
O=[N+]([O-])c1cc(Cl)ccc1NCCNc1ncc(C(F)(F)F)cc1Cl	-17	2.2	-1%	18%	30	0.0%	-3%
CC(C)NC(=O)[C@H](CSCc1ccccc1)N1Cc2ccccc2C1=O	8	5.9	16%	23%	0	1.5%	1%
COC(=O)c1scc(S(=O)(=O)C(C)(C)C)c1-n1cccc1	-21	3.6	-38%[inhibitor]	15%	21	-1.8%	1%
O=C(N/N=C/c1coc2ccc(Cl)cc2c1=O)c1ccc(O)cc1	3	0.5	-6%	14%	11	-2.2%	0%
O=C(c1ccco1)N(Cc1ccco1)c1ccc(O)cc1	3	7.2	-21%	14%	3	0.5%	-7%
COc1ccc2oc(C(=O)OCC(=O)N3CCN(S(=O)(=O)c4ccccc4)CC3)c(C)c2c1	-1	/	-95%[inhibitor]	/	11	?	-36%
O=c1c2c3c(sc2n(CCN2CCCC2)c(=O)n1Cc1ccccc1)CCCCC3	-25	8.8	?	4%	-3	-5.9%	?
CCOC(=O)CSc1nc2c(c(=O)n1-c1ccc(OCC)cc1)SCC2	11	2.1	0%	18%	-18	0.7%	5%
O=C(CN1CCC(n2nnc3ccccc32)CC1)Nc1ccc2c(c1)CCC2	-1	1.1	-3%	12%	4	1.4%	-18%
CCc1ccc2c(c1)cc(CN(C(=S)Nc1ccccc1C)C1CC1)c1nnnn12	6	2.2	24%	-1%	10	0.0%	39%[activator]
Cc1sc2ccccc2c1CNC[C@H]1O[C@@H](n2cnc(C(N)=O)n2)[C@H](O)[C@@H]1O	7	/	/	/	/	1.3%	1%
Cc1ccc(OCCNS(=O)(=O)c2ccc(Cl)cc2)cc1	?	/	-345%[inhibitor]	/	-7	-2.5%	1%
CN(C)CCn1nnnc1SCC1=C(C(=O)O)N2C(=O)[C@@H](NC(=O)Cc3csc(N)n3)[C@H]2SC1	-18	/	/	/	1	-1.2%	-2%
COc1ccc(CCNC(=O)c2ccccc2NC(=O)c2ccco2)cc1OC	0	9.9	6%	9%	4	-4.3%	-24%
SMILES	CtBP-E1A inh	Menin-MLL FL inh	gsp ag	Sfp inh	TRPV1 PAM	ClpP mod	gsp antagonist
COCCN1C(=O)C(=O)/C(=C(/O)c2ccc(S(=O)(=O)N3CCCCC3)cc2)C1c1ccc(OC)c(OC)c1 (centres undefined)	-3	1.4	17%[15.4 µM]	1%	5	-1.0%	4%
COc1ccc(C(C)(C)C)cc1NC(=O)Cn1cnnn1	4	-1.9	-49%[inhibitor]	17%	9	0.4%	9%
CCOC(=O)N1CCN(CC(=O)Nc2ccc(F)c(F)c2F)CC1	5	0.4	-11%[15.4 µM]	9%	-7	-22%	7%
O=C(CN1C(=O)/C(=C/c2cccc(Br)c2)SC1=S)NC1=NCCS1	-1	/	3%[15.4 µM]	-12%	4	/	0%
Cc1ccc(C2(C)NC(=O)N(CC(=O)NNC(=O)c3cc(C)oc3C)C2=O)cc1 (centres undefined)	-21	/	11%[15.4 µM]	/	4	-2.9%	-11%
Cc1ccc(-n2c(O)c(C=Nc3ccc(S(=O)(=O)Nc4ncccn4)cc3)c3ccccc3c2=O)cc1C	5	3.2	10%	-12%	3	-0.3%	?
CC(C)=N/N=C(/c1ccc([N+](=O)[O-])cc1)C12CN3CN(CN(C3)C1)C2	1	-1.4	-4%[15.4 µM]	12%	-3	/	-2%
COc1ccccc1C(=O)NC(=O)Nc1c(C)cc(C)cc1C	-1	-7.4	?	-2%	-5	-3.7%	-12%
CC(C)N(C(=O)CSc1nc(COc2ccccc2)nc2ccccc12)C(C)C	4	-1.4	0%	1%	-8	-2.8%	-3%
O=C(CNc1cccc2ccccc12)N/N=C/C(Br)=C/c1ccccc1	8	0.1	-54%[inhibitor]	7%	8	-2.1%	-6%
COc1ccc(OC)c(S(=O)(=O)n2cccn2)c1	-4	4.7	?	12%	-1	-1.5%	4%
CC1CC1C(=O)Nc1nc2ccc(Cl)cc2s1 (centres undefined)	2	/	-12%	/	/	/	-15%
O=C(CCc1nnc2ccc(N3CCCC3)nn12)Nc1cc(F)ccc1F	-6	/	33%	3%	?	-2.3%	-9%

One compound at a time, from the list above. Order of screens: CtBP-E1A inh	Menin-MLL FL inh	gsp ag	Sfp inh	TRPV1 PAM	ClpP mod	gsp antagonist
O=C(CN1C(=O)/C(=C/c2cccc(Br)c2)SC1=S)NC1=NCCS1 as listed: -1	/	3%[15.4 µM]	-12%	4	/	0%
COc1ccccc1C(=O)NC(=O)Nc1c(C)cc(C)cc1C as listed: -1	-7.4	?	-2%	-5	-3.7%	-12%

The order is random; 5.3% or so of the library scored in one or more.
